E coli growth: inhibitors of Escherichia coli growth; OD600, 23 h; stronger effect = lower value; OD600 absorbance (test concentration not listed); 0.21% of 330,000 active;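 active = OD600 absorbance below the run mean of sample wells minus 3.6 SD, in any replicate, cut at about 0.56 in these data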;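 also: stock transfer was 300 nL into about 60 µL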
MLL AF4-AF9 inh: blocks AF4 peptide binding to human AF9. 0.47% of 350,000 active. AlphaScreen, biotin-AF4 peptide binding to FLAG-AF9. AID 651704. inhibition, % at 10 µM;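 active = every replicate reaching a set inhibition limit, whatever the replicate mean, cut at about 25% in these data; inconclusive = mean inhibition reaches that limit but some replicates miss it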;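 also: 0% = plate neutral control median and 100% = total signal loss; the record names both 10 and 1 µM as test concentration; the first replicate is given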
FGF22 binding: binders of recombinant human FGF22 by thermal shift; AID 651658; calls only at 9.99 µM; SYPRO orange fluorescence; percent of sucrose octasulfate shift, DMSO zero; Q9HCT0; 1.5% of 340,000 active;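 active = melting point raised past a set limit in the mean and every replicate; inconclusive = no clear call; three in four hits are not shown here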
Target sequence (Q9HCT0 whole entry, looked up): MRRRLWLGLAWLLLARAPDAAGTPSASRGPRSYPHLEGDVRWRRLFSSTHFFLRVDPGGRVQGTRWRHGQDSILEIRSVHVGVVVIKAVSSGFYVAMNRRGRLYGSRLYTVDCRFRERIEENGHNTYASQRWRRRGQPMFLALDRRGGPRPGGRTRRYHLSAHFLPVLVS
Ecoli rRNA inh: inhibits bacterial ribosomal RNA function over humanized ribosomes; GFP signal change (wild-type ribosome), % (test concentration not listed); 1.6% of 350,000 active; E. coli WT GFP vs humanized-ribosome RFP mutants, fluorescence, 24 h; stronger effect = lower value; DMSO median 0, no signal -100;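 active = significant combined selectivity score with lowered wild-type GFP, culture density cut under 30%, mutant RFP and density less affected; inactive = any of these conditions unmet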; also: one replicate is shown; some compounds called inactive have numbers as strong as hits
ALR inh: blocks human ALR sulfhydryl oxidase activity; P55789; purified ALR, DTT oxidation, H2O2 HRP-luminol luminescence; inhibition, % (no concentration beside the values); 3.8% of 290,000 active;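 active = mean and each replicate at 75% or more; inconclusive = only one of the two met; inactive = neither met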;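 also: stock transfer was 7.5 nL into about 7.5 µL; 0% = neutral wells and 100% = wells with inactivated enzyme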
Target sequence (P55789 whole entry, looked up): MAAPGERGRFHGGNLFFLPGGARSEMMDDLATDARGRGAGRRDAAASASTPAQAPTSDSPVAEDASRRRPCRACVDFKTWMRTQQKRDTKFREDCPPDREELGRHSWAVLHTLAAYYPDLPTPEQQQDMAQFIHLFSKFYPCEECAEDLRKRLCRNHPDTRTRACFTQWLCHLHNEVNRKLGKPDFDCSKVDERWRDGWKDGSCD
HNF4A DNA FP: change in binding of human HNF4 alpha to DNA; P41235; HNF4a-FITC DNA binding, fluorescence polarization, 1 h; activity change, % at 10 µM; 0.3% of 360,000 active; in the data active = activity change above about 30%, passing the limit was not always enough;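 also: controls were the assay level and a saturating level of protein; the project sought stronger binding though the title names inhibitors; some compounds called inactive have numbers as strong as hits; positive values seem to mean higher polarization but the record does not say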
Target sequence (P41235 whole entry, looked up): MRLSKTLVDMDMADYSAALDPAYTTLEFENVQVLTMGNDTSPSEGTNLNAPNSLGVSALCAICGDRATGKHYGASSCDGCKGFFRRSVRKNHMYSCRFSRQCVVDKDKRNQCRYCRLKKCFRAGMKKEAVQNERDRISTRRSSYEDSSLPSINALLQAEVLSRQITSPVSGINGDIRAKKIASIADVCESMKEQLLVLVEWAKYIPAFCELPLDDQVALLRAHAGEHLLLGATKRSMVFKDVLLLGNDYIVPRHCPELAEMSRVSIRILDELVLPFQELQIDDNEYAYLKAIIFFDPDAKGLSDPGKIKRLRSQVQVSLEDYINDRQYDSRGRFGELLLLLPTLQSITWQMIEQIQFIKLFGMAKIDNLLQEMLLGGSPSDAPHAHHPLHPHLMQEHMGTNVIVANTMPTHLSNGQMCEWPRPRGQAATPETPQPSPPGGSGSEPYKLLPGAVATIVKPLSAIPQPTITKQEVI
Vif TR-FRET: inhibitors of Vif binding to APOBEC3G peptide, primary screen, biochemical, TR-FRET, GST-Vif 1-94, biotin-A3G peptide, dose response retest (AID 1117319); 0.57% of 260,000 active; TR-FRET GST-Vif / biotin-A3G peptide binding; higher % means a stronger effect; test concentration not given here; strong numbers were not always called active; inhibition, %, or IC50 in µM where a hit was titrated;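 active = above the screen mean plus three standard deviations and confirmed in dose response; inconclusive = results disagree or hit not tested in dose response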;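 also: Vif residues 1-94 fused to GST binding biotinylated APOBEC3G peptide 110-148; 0% = full assay without inhibitor and 100% = GST in place of GST-Vif; retest series ran down from 100 µM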
Ecoli rRNA inh OD600: second read-out of Ecoli rRNA inh, no call of its own (marks repeat the call); OD600 change, %; measured here: OD600 growth;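 optical density of the mix in the first replicate; 0 = DMSO median and -100 = no signal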
Ecoli rRNA inh RFP: recorded beside Ecoli rRNA inh, whose call it bears; RFP signal change, %; measured here: RFP humanized mutant strains;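 first replicate; 0 = DMSO median and -100 = no signal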
An asterisk follows results filed as active; i = inactive; ? = inconclusive; nt = not tested or not shown; & = joins results of further samples. These rows are one share of the data; count on the stated rates, not on these rows.

Sample of the layout:
#	structure	Vif TR-FRET	E coli growth	FGF22 binding	MLL AF4-AF9 inh	ALR inh	HNF4A DNA FP	Ecoli rRNA inh OD600	Ecoli rRNA inh	Ecoli rRNA inh RFP
1	O=C(O)C1SCCN1S(=O)(=O)c1ccc2ccccc2c1 (configuration not stated)	9%	0.74	nt	nt	-2	-1.0	nt	nt	nt
2	C[C@H]1CCCCO[C@@H](CN(C)Cc2ccncc2)[C@@H](C)CN([C@@H](C)CO)C(=O)c2cc(NC(=O)Nc3ccc4c(c3)OCO4)ccc2O1	nt	nt	i	11	nt	nt	-7	-1	2.9

The list itself, from the start:
#	structure	Vif TR-FRET	E coli growth	FGF22 binding	MLL AF4-AF9 inh	ALR inh	HNF4A DNA FP	Ecoli rRNA inh OD600	Ecoli rRNA inh	Ecoli rRNA inh RFP
1	O=C(O)C1SCCN1S(=O)(=O)c1ccc2ccccc2c1 (configuration not stated)	9%	0.74	nt	nt	-2	-1.0	nt	nt	nt
2	C[C@H]1CCCCO[C@@H](CN(C)Cc2ccncc2)[C@@H](C)CN([C@@H](C)CO)C(=O)c2cc(NC(=O)Nc3ccc4c(c3)OCO4)ccc2O1	nt	nt	i	11	nt	nt	-7	-1	2.9
3	CCOC(=O)C1(c2nc(N)cs2)COC(=O)C1 (configuration not stated)	?	0.68	nt	nt	-2	1.2	nt	nt	nt
4	COc1ccccc1N1CCN(C2CCCN(C(=O)c3cc(C4CC4)on3)C2)CC1 (configuration not stated)	nt	0.69	i	-0.4	22	1.6	-1	0	0.5
5	COc1cccc(-c2ccc3c(c2)O[C@@H](CN(C)C(=O)C2CCOCC2)[C@@H](C)CN([C@@H](C)CO)S3(=O)=O)c1	nt	nt	i	-0.8	nt	nt	-8	-1	-4.8
6	O=C(COC(=O)C(Cc1ccccc1)NC(=O)c1ccco1)NC1CC1 (configuration not stated)	-1%	0.74	nt	nt	-1	-1.4	nt	nt	nt
7	O=c1nc2ccccc2c2n1CC(CN1CCN(c3ccccc3F)CC1)N2 (configuration not stated)	-8%	0.69	nt	nt	-5	0.9	nt	nt	nt
8	C=CCc1cc(Cl)ccc1OCCNCCOC	nt	0.66	i	0.4	-1	1.6	-2	-4	1.3
9	C[C@H](CO)N1C[C@H](C)[C@H](CN(C)Cc2ccc(Oc3ccccc3)cc2)Oc2c(NC(=O)C3CCCCC3)cccc2C1=O	nt	nt	i	5.3	nt	nt	-22	-5	2.6
10	CC(C)(C)OC(=O)NN=C(c1ccc(O)cc1)c1ccc(O)cc1	nt	0.7	i	-6.7	82*	-0.6	3	13	-4.3
11	COc1ccc(NC(=O)CCNS(=O)(=O)c2ccc(NC(C)=O)cc2)cc1Cl	nt	0.64	i	0.6	2	2.6	15	5	1.0
12	C[C@H](NC(=O)OC(C)(C)C)c1nnc(SCC(=O)Nc2cccc(Cl)c2)o1	6%	0.64	i	0.7	96*	0.5	5	4	0.0
13	C[C@H](CO)N1C[C@H](C)[C@H](CN(C)S(=O)(=O)c2ccc(Cl)cc2)OCCCC[C@H](C)Oc2ccc(NC(=O)CCCN(C)C)cc2C1=O	nt	nt	i	14	nt	nt	-47	-12	34
14	C[C@H]1CN([C@@H](C)CO)C(=O)c2cc(Br)cnc2O[C@@H]1CN(C)C(=O)c1ccncc1	-6%	nt	i	1.4&-2.8	nt	2.1	10&17	6&6	0.8&-3.8
15	O=C(CNC1CCCCCC1)c1cccs1	nt	0.69	i	-2.3	nt	0.7	26	25	-3.1
16	CCOC(=O)COc1cc(OCC(=O)OCC)c2c3c(c(=O)oc2c1)CCCC3	-17%	0.64	i	-35	-1	-2.3	2	5	1.5
17	COc1cccc(NC(=O)c2ccccc2-c2ccccc2C(=O)O)c1	nt	0.68	i	-0.4	-6	0.4	7	-5	-7.8
18	Cc1cc(C(=O)OCC(=O)NCCC(C)C)c2ccccc2n1	-3%	0.65	nt	nt	-5	2.5	nt	nt	nt
19	CCS(=O)(=O)c1ccc(O)c(NC(=O)COc2ccc(Cl)cc2)c1	nt	0.69	nt	-0.2	4	-0.3	-39	-33	-7.3
20	Cc1onc(-c2ccccc2Cl)c1C(=O)N1CCOC12CCN(c1cccc(F)n1)CC2	27%	0.68	i	-1.1	-6	2.4	-3	0	2.3
21	Cn1cc(CN2CC3C[C@@H]4CC2C[C@H](C3)C4)c(-c2ccc3c(c2)OCCO3)n1	4%	0.62	i	5.0	nt	1.2	13	22	-3.2
22	CCNC(=O)C[C@@H]1CC[C@H]2[C@@H](COc3ccc(NC(=O)c4ccc(C(F)(F)F)cc4)cc3C(=O)N2C)O1	nt	nt	i	-2.1	nt	nt	3	0	-0.1
23	CCc1cc2c(=O)c(-c3ccc4c(c3)OCCO4)coc2c(CN2CCCCC2C)c1O (configuration not stated)	nt	0.71	i	2.6	-4	-1.0	4	5	1.1
24	COc1cc(NC(=O)CNC(c2ccccc2)c2ccccc2)cc(OC)c1OC	2%	0.68	i	1.5	-9	-5.0	-27	-29	-0.7
25	O=C(O)CCSc1nnc(SCC(=O)NCC(F)(F)F)s1	-1%	0.6	nt	nt	-20	-3.1	nt	nt	nt
26	Cc1ccc(-c2nc3ccc(Cl)cc3n2OC(C)C(=O)O)cc1 (configuration not stated)	nt	0.67	i	-0.9	-8	1.1	-4	-3	-1.2
27	Nc1cccc2c1C(=O)N(CCOc1ccccc1F)C2=O	nt	0.68	i	-4.9	0	-15	-9	-7	-1.4
28	Cc1ccccc1NC(=O)CSc1nnc(CNC(=O)c2ccco2)n1C	-4%	0.67	i	-1.0	nt	1.1	5	0	-3.1
29	CCOc1ccccc1NC(=O)C(OC(=O)c1ccc(CC)cc1)c1ccccc1 (configuration not stated)	0%	0.75	nt	nt	nt	0.5	nt	nt	nt
30	CCc1noc(C)c1C(=O)OC(C)C(=O)Nc1ccc(Cl)cn1 (configuration not stated)	-3%	nt	i	-0.5	-2	-0.8	-3	0	-0.2
31	O=C(N/N=C/c1ccc2c(c1)OCO2)c1cc(-c2ccco2)nc2ccccc12	19%	nt	i	3.0	nt	-13	11	10	-2.8
32	Cc1cc(C(=O)O)c2ccccc2n1	3%	0.65	nt	nt	-5	-0.4	nt	nt	nt
33	CCn1cc(C(=O)OCC(=O)c2cc(C)n(-c3ccc(OC(F)F)cc3)c2C)c(=O)c2ccc(C)nc21	9%	0.56	nt	nt	4	-3.1	nt	nt	nt
34	CCOc1cc(/C=C2\SC(=S)N(NS(=O)(=O)c3ccc(C)cc3)C2=O)ccc1O	nt	0.6	i	4.6	99*	14	-21	-40	53
35	COc1ccc2cc(C3=CC(=O)C[C@H](c4ccc5c(c4)OCO5)C3)ccc2c1	nt	nt	i	-0.5	0	1.4	2	-1	-9.4
36	C/C(=N/NS(=O)(=O)c1cccc([N+](=O)[O-])c1)c1c[nH]c2ccccc12	nt	nt	i	2.4	42	2.9	21	25	2.9
37	COc1ccc(CCNC(=O)C(=O)NN=C2CCCCCCC2)cc1OC	-11%	0.65	i	-3.7	-6	-8.9	12	9	0.7
38	NC(=O)c1ccccc1N=Cc1ccccn1	8%	0.69	nt	nt	0	2.3	8	2	-3.8
39	CCCCn1c(N)c(N(Cc2ccccc2OC)C(=O)CCSC)c(=O)[nH]c1=O	nt	0.7	i	-1.8	-18	-0.6	14	3	-0.2
40	Cn1c(CNC(=O)c2ccc(Cl)cc2)nnc1SCC(=O)Nc1sc2c(c1C#N)CCCC2	27%	0.74	nt	nt	1	-4.3	nt	nt	nt
41	CC(=O)c1cccc(NC(=O)N[C@@H](CC(C)C)C(=O)O)c1	5%	0.67	nt	-0.3	-13	0.2	nt	nt	nt
42	COc1cccc(N(C(=O)CS(=O)CC(=O)Nc2ccc(F)cc2)C(C(=O)NC2CCCCC2)c2cccs2)c1 (configuration not stated)	6%	0.71	nt	nt	-9	-2.1	nt	nt	nt
43	CCC(=O)c1c(NC(CC)CO)cc(C)oc1=O (configuration not stated)	2%	0.68	i	-2.3	-5	1.3	5	12	-0.6
44	CCCN1C[C@H](C)[C@H](OC)CN(C)C(=O)c2ccc(NC(=O)c3cccc(F)c3)cc2OC[C@@H]1C	nt	nt	i	?	nt	nt	4	2	-2.1
45	O=C(Nn1c(C2CCCCC2)nc2ccccc2c1=O)c1ccc([N+](=O)[O-])cc1	nt	0.67	i	0.2	-7	2.6	-1	3	3.8
46	O=C(CSc1nnnn1-c1ccc(F)cc1)Nc1ccc(N2CCOCC2)c(Cl)c1	2%	0.71	nt	nt	-9	5.7	nt	nt	nt
47	Cc1ccc(S(=O)(=O)N2CCN(CC(=O)Nc3ccccc3C(=O)NC3CC3)CC2)cc1	-1%	0.68	i	0.4	nt	-2.3	-10	-5	3.1
48	CCCSc1nnc(CNS(=O)(=O)c2ccc(C)cc2)n1C	nt	0.7	i	-1.3	-3	-0.4	13	13	-0.5
49	CC(C)CC#Cc1cnc2c(c1)C(=O)N([C@@H](C)CO)C[C@@H](C)[C@H](CN(C)Cc1cccc(F)c1)O2	nt	nt	i	13	nt	nt	4	2	6.9
50	COc1cccc(N2CC(NS(=O)(=O)c3cccnc3)CC2=O)c1 (configuration not stated)	-7%	0.67	i	-0.5	-4	-1.5	12	9	-1.0

Next part
#	structure	Vif TR-FRET	E coli growth	FGF22 binding	MLL AF4-AF9 inh	ALR inh	HNF4A DNA FP	Ecoli rRNA inh OD600	Ecoli rRNA inh	Ecoli rRNA inh RFP
51	COc1ccc(C(=O)NCCCCCCNC(=O)c2ccc(OC)cc2)cc1	0%	0.67	i	0.0	25	3.8	13	11	0.9
52	CCN(CC)S(=O)(=O)c1ccc2oc(Nc3ccc(OC)cc3OC)nc2c1	nt	0.66	i	2.0	2	4.0	0	4	0.2
53	Cc1ccc(NC(=O)c2cccs2)cc1NC(=O)c1ccc(F)cc1	nt	0.71	i	-6.2	-5	2.5	23	20	4.9
54	Cc1cccc(N(Cc2ccc(Cl)cc2)S(C)(=O)=O)c1	8%	0.7	i	-2.4	-5	-0.5	-52	-44	-12
55	CC(=O)n1cc(/C=N/NC(=O)c2sc(C)nc2C)c2ccccc21	26%	nt	nt	nt	-8	1.3	nt	nt	nt
56	O=C(NCCCCc1ccccc1)C12CN(Cc3ccccc3)CC1C(c1cccc([N+](=O)[O-])c1)=NO2 (configuration not stated)	16%	0.68	i	-2.5	3	2.4	15	11	-0.1
57	COc1ccc(/C=N/NC(=O)c2cccc(C(F)(F)F)c2)cc1	-8%	nt	i	-1.3	-3	-1.1	5	12	-2.7
58	Cn1nc(C(=O)OCC(=O)c2ccccc2)c2ccccc2c1=O	nt	0.72	i	-0.8	-5	2.6	12	1	-0.9
59	O=c1[nH]c2c(s1)C(c1ccc(O)cc1)C1C3CCC(C3)C1S2 (configuration not stated)	4%	0.69	i	3.2	53	2.0	-32	-12	-1.5
60	CN(C)S(=O)(=O)c1ccc(Cl)c(NC(=O)CSc2nc3c(cc2C#N)C(=O)CC(C)(C)C3)c1	-2%	0.73	i	3.2	15	0.4	10	7	6.3
61	CC(C)C#Cc1cnc2c(c1)C(=O)N([C@H](C)CO)C[C@@H](C)[C@@H](CN(C)C(=O)Nc1ccccc1F)O2	nt	nt	i	-3.6	nt	nt	10	6	-1.1
62	CC(=O)N(c1ccc2oc(=O)sc2c1)S(=O)(=O)c1ccc(C)cc1	nt	0.67	i	-11	nt	-2.1	2	2	-0.7
63	CCc1nn(-c2ccccc2)c(N)c1-c1ccc(OC)c(OC)c1	-2%	0.78	nt	nt	nt	0.9	nt	nt	nt
64	O=C(/C=C/c1ccc(Cl)cc1)N(c1ccccn1)C1CCCCC1	-4%	0.69	i	2.0	-3	-2.3	1	15	3.0

Compound activity (PubChem)
